# LANA-H2B inh: blockers of LANA interaction with H2A/H2B – biochemical, FP readout, HTS, primary screen; Protein LANA1 (Human herpesvirus 8 type P (isolate GK18)), Q9QR71; cell-free LANA-H2A/H2B peptide, fluorescence polarization; inhibition, % (test concentration not listed); hit rate 0.6% among 320,000; AID 2629, 2010; in the data active means inhibition mostly above about 10%, no sharp cut-off; inactive means mostly below about 6.7%;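 further: stock transfer was 7.5 nL into about 10 µL; 0% = median of vehicle wells and 100% = median of positive control wells; one replicate is shown; the record names a cut of 25% in any replicate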
# UCH37 inh: inhibitors of human UCH37 deubiquitinase, primary screen, biochemical, Ub-AMC cleavage, fluorescence. purified proteasome/UCH37. AID 588478, 2011. hit rate 0.33% among 330,000. inhibition, % (test concentration not listed). Ubiquitin carboxyl-terminal hydrolase isozyme L5 (Homo sapiens), Q9Y5K5;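 active means mean of two replicates above 20%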;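 further: 0% = compound-free wells with enzyme and 100% = wells lacking proteasome; stock transfer was 100 nL into about 20 µL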
# Target sequence (Q9Y5K5 whole entry, looked up): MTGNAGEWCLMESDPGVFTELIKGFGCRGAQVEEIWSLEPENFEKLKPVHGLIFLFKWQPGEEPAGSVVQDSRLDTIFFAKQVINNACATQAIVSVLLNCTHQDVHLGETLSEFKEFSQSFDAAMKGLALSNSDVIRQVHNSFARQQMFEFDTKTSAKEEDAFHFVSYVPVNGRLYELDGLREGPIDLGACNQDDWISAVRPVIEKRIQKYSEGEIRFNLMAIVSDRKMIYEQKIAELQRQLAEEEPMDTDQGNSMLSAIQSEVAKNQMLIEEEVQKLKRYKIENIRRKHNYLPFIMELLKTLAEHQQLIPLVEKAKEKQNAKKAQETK
#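 Signal – fluorescence, ex 355 nm, em 460 nm · System – Proteasome-bound UCH37 · Input – 0.15 nM proteasome as dispensed · Timing – 30 min preincubation with enzyme, 25 min cleavage at room temperature · Read-out basis – percent inhibition of cleavage signal versus uninhibited and no-proteasome wells · Medium – Tris-HCl pH 7.4 with ATP-MgCl2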
# E coli growth: E. coli growth inhibition, primary screen, OD600; Escherichia coli growth, 23 h; active compounds read low; OD600 absorbance (test concentration not listed); hit rate 0.21% among 330,000;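 active means OD600 absorbance below the run mean of sample wells minus 3.6 SD, in any replicate, cut at about 0.56 in these data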;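 further: stock transfer was 300 nL into about 60 µL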
# Beta2AR agonist: beta2AR agonists driving receptor internalization, primary screen, cell-based, FAP fluorogen, flow cytometry; hit rate 0.43% among 340,000; response, % (concentration not given with the values); Am2.2-beta2AR cells; reference of the scale not given here; Beta-2 adrenergic receptor (Homo sapiens), P07550;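 active means response above a set limit, near 3 SD of response in nonfluorescent compounds, cut at about 42% in these data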;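 further: stock transfer was 100 nL into about 11 µL; a reference agonist was the positive control; negative values mostly stem from fluorescent compounds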
# Vif A3G: inhibitors of Vif binding to APOBEC3G peptide, primary screen, biochemical, TR-FRET, GST-Vif 1-94, biotin-A3G peptide, dose response retest (AID 1117319). TR-FRET GST-Vif / biotin-A3G peptide binding; higher % means a stronger effect; test concentration not given here; strong numbers were not always called active. one-dose inhibition, %; IC50 in µM for titrated hits. hit rate 0.57% among 260,000;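 active means above the screen mean plus three standard deviations and confirmed in dose response; inconclusive means results disagree or hit not tested in dose response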;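 further: Vif residues 1-94 fused to GST binding biotinylated APOBEC3G peptide 110-148; 0% = full assay without inhibitor and 100% = GST in place of GST-Vif; retest series ran down from 100 µM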
# HNF4A DNA FP: change in binding of human HNF4A to DNA, primary screen, biochemical, fluorescence polarization, FITC-DNA; 1 h; activity change, % at 10 µM; hit rate 0.3% among 360,000; in the data active means activity change above about 30%, passing the limit was not always enough;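 further: controls were the assay level and a saturating level of protein; the project sought stronger binding though the title names inhibitors; some compounds called inactive have numbers as strong as hits; positive values seem to mean higher polarization but the record does not say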
# Target sequence (P41235 whole entry, looked up): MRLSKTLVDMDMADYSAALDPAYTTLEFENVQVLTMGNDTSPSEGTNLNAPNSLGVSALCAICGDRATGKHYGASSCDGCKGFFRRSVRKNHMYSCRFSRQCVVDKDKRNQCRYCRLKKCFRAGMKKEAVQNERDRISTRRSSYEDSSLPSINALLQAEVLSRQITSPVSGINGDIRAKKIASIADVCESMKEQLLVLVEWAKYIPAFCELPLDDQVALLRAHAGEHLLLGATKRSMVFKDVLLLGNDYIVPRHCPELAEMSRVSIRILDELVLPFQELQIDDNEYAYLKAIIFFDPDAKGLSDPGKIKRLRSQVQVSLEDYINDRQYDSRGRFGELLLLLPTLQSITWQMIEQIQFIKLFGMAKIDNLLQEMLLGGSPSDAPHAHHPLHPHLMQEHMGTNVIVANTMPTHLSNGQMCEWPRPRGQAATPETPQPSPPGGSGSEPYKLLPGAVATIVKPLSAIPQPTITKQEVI
# A1 inh: caspase 3/7 activation in MEF A1-2A-BIM cells, primary screen, A1 inhibitor project, cell-based, luminescence, HTS; Caspase-Glo 3/7 luminescence, 3 h; percent of clofoctol response, vehicle zero; caspase activation, % (test concentration not listed); hit rate 0.066% among 330,000; AID 2462, 2010;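 active means over half of replicate activation scores above 10%, or exactly half above 10 with the replicate mean above 10; inconclusive means replicate mean below 10 yet half the replicates above 10; inactive means over half of replicates below 10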;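 further: wells of about 30 µL received 50 nL stock; many hits fall short of the cut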
# * = called active by the depositor; ? = inconclusive; · = no result given; & = joins results of further samples. Rows are unselected; about 2.1% have a hit in one of these screens.
smiles	LANA-H2B inh	UCH37 inh	E coli growth	Beta2AR agonist	Vif A3G	HNF4A DNA FP	A1 inh
O=C(C1CC1)N1CCN=C1SCc1ccccc1Cl	1.2	4.9	0.77	-31	0%	-1.8	0.4
NS(=O)(=O)c1ccc(NC(=S)NC(=O)c2ccc3c(c2)OCO3)cc1	-3.4	1.2	0.71	-1	·	-1.6	-0.8
COc1ccc(-c2c(C)nn(Cc3ccccc3)c2N)cc1	4.3	3.0	0.64	8	9%	-0.8	0.2
Cc1cccc(NC(=O)N2CCC(n3nnc4cc(C)ccc43)CC2)c1	2.9	1.0	0.68	9	2%	-0.8	1.1
Cc1cccc(C(=O)OCC(=O)N(C)c2ccccc2)c1C	-16	2.0	0.69	3	·	2.0	1.3
O=C(COc1ccc(S(=O)(=O)NC2CCCCC2)cc1Cl)N1CCN(c2ccccc2)CC1	·	-1.2	0.78	4	10%	0.2	·
COc1nccc(NCc2ccccc2)c1C#N	-1.5	0.9	0.67	-2	·	2.5	0.1
CCOC(=O)CN(C(=O)c1snc(C(N)=O)c1N)C(C(=O)NCCC(C)C)c1ccc(F)cc1 (stereo unspecified)	-2.1	-43	0.65	-2	·	0.4	0.0
O=C(Nc1nc2ccccc2n1CCOc1ccccc1)c1ccco1	-0.4	-0.4	0.75	13	-2%	-2.0	-0.8
Cn1ncc(Cl)c1C(=O)NC1CCCC1	5.7	5.3	0.68	-6	3%	6.9	1.4
COc1cc(/C=N/n2cnnc2)ccc1OCc1ccc(C)cc1	-4.7	·	·	-9	23%	1.1	-0.5
O=C(O)c1cc(=O)cc(C(=O)O)[nH]1	-1.3	3.8	0.68	1	4%	0.4	0.2
Cn1ccnc1SCC(=O)NC12CC3CC(CC(C3)C1)C2	0.2	1.8	0.69	3	2%	-0.4	-0.2
COCCNC(=O)C(c1ccc(OC)cc1)N(C(=O)Cn1nnc2ccccc21)c1cccnc1 (stereo unspecified)	-0.1	-0.8	0.68	1	0%	7.3	-0.2
O=C(Cc1ccc(-c2ccccc2)cc1)Nc1ccccc1	-7.0	0.0	0.69	-14	-6%	0.3	-0.1
COc1ccc(NC(=O)CN2CCN(c3nc(-c4ccc(F)cc4)cs3)CC2)c(OC)c1	2.6	2.8	0.71	10	·	-1.6	-0.4
COc1ccc(CCNC(=O)CSc2nc(=O)n3cc(C)ccc3n2)cc1OC	-3.7	7.4	0.69	-8	-10%	-3.5	0.0
Oc1ccc(N=Nc2n[nH]c(-c3ccccc3)n2)cc1	-5.9	14	0.62	5	·	8.2	1.2
O=C1/C(=C\c2ccc([N+](=O)[O-])cc2)CS(=O)(=O)C/C1=C/c1ccc([N+](=O)[O-])cc1	·	·	·	25	27%	-3.4	·
Nc1cc2c(cc1Br)-c1c(C(=O)O)cccc1C2O (stereo unspecified)	·	·	·	-6	-2%	-0.8	·
Cc1cc([N+](=O)[O-])c(C)cc1-c1ccc(/C=N/NC(=O)c2cccnc2)o1	2.6	·	·	2	·	3.1	1.1
O=C(CCc1n[nH]c(=O)[nH]c1=O)N/N=C/c1ccc(Br)o1	-7.3	·	·	1	-4%	-1.1	-0.5
CCOC(=O)c1nnc(-c2ccccc2)[nH]c1=O	-4.3	6.0	0.73	2	·	0.8	-0.5
O=C(NCCN1CCN(c2ccccc2)CC1)C1CCN(S(=O)(=O)N2CCOCC2)CC1	·	-4.7	0.75	4	26%	-1.5	·
C=CCOC(=O)C1=C(C)Nc2ncnn2C1c1cc(Br)ccc1F (stereo unspecified)	-1.2	1.5	0.72	-6	29%	0.8	0.4
O=C(COC(=O)c1cccc(OC(F)F)c1)NCC1CCCO1 (stereo unspecified)	-0.1	-0.3	0.64	-13	-10%	-1.6	0.7
O=C(OCc1nnc(-c2ccccc2)o1)c1cc(Cl)ccc1[N+](=O)[O-]	-4.8	-3.0	0.68	10	10%	1.2	1.0
Cc1ccc(CSc2nnc(CS(=O)Cc3ccc(Cl)cc3Cl)n2C)cc1 (stereo unspecified)	-0.1	3.7	0.65	-17	0%	3.7	-0.9
Cc1ccc(-n2c(Cc3cccn3C)nnc2SCC(=O)NCc2ccco2)cc1	2.4	1.7	0.65	-9	10%&20%	-0.3	0.3
CC(C)Oc1cccc(C(=O)C2CCCN(Cc3cnn(C(C)C)c3)C2)c1 (stereo unspecified)	4.4	-6.5	0.68	-12	10%	2.1	0.5
Cc1ccc(S(=O)(=O)N2CCC(C(=O)Nc3ccccc3N3CCCC3)CC2)cc1	1.8	-1.9	0.65	2	5%	2.3	-0.9
C=CCn1c(Br)nc2c1c(=O)[nH]c(=O)n2C	-11	-1.1	0.69	-13	3%	0.1	-0.2
COc1ccc(-c2cc(C(=O)Nc3cccnc3)c3ccccc3n2)cc1OC	1.2	-25	0.68	11	·	-0.6	?
Cc1ccc(OCC(=O)Nc2ccc(S(=O)(=O)Nc3cc(C)nc(C)n3)cc2)c(C)c1	-8.8	1.8	0.69	6	-4%	-2.7	-0.7
Cc1cc(C)c(S(=O)(=O)N(CC(=O)O)CC(=O)O)c(C)c1	6.9	1.0	0.7	1	24%	4.5	0.7
CCOc1ccc(C(CCc2ccccc2)NC(=O)c2ccccc2)cc1OCC (stereo unspecified)	0.8	3.8	0.68	2	-6%	0.5	0.3
Cc1ccc(S(=O)(=O)/N=S(/C)c2ccccc2)cc1 (stereo unspecified)	-2.5	·	·	2	10%	-1.3	0.8
COc1ccc(C(=O)CC(CC(=O)c2ccc(OC)cc2)C(=O)O)cc1	1.1	5.3	0.69	2	·	-1.3	1.6
Cc1ccc(CNC(=O)CCC(=O)N2CC(C)Sc3ccccc32)cc1 (stereo unspecified)	0.3	-0.2	0.64	-5	3%	2.9	1.1
COc1ccc(/C=C(/CC(=O)Nc2ccccc2)c2nc3ccccc3s2)cc1	4.8	-1.7	0.71	10	·	6.8	-0.1

# Laid out differently: entries from further up
# Order of results: LANA-H2B inh, UCH37 inh, E coli growth, Beta2AR agonist, Vif A3G, HNF4A DNA FP, A1 inh
CCOc1ccc(C(CCc2ccccc2)NC(=O)c2ccccc2)cc1OCC (stereo unspecified)
  0.8, 3.8, 0.68, 2, -6%, 0.5, 0.3
Cc1ccc(CNC(=O)CCC(=O)N2CC(C)Sc3ccccc32)cc1 (stereo unspecified)
  0.3, -0.2, 0.64, -5, 3%, 2.9, 1.1
COc1ccc(C(=O)CC(CC(=O)c2ccc(OC)cc2)C(=O)O)cc1
  1.1, 5.3, 0.69, 2, ·, -1.3, 1.6
Cc1cc(C)c(S(=O)(=O)N(CC(=O)O)CC(=O)O)c(C)c1
  6.9, 1.0, 0.7, 1, 24%, 4.5, 0.7

# Additional structures follow:
smiles	LANA-H2B inh	UCH37 inh	E coli growth	Beta2AR agonist	Vif A3G	HNF4A DNA FP	A1 inh
CCCCC(CC)C(=O)NCCCN1CCN(CCCNC(=O)C(CC)CCCC)CC1 (stereo unspecified)	0.7	-0.1	0.7	-3	-2%	-4.8	0.2
O=C(O)c1ccc(N/N=C/c2ccc(C(F)(F)F)cc2)cc1	13	·	·	1	-2%	-3.2	-8.0
COC(=O)c1ccc(NC(=O)COC(=O)c2cccc3c(=O)c(C)c(-c4ccccc4)oc23)cc1	2.9	3.1	0.74	-2	9%	-6.5	1.0
CC(C)C(=O)Nc1c(-c2ccc(Cl)cc2)c(=O)c2ccccc2n1C	-0.3	2.3	0.69	-3	0%	-0.2	0.2
CCN(Cc1nc2cc(Cl)ccc2c(=O)[nH]1)C(=O)c1ccc(C)c(NC(=O)c2ccco2)c1	2.1	1.1	0.7	-6	-7%	4.0	0.9
COc1ccc(CCn2c(=N)c(C(=O)NCc3ccco3)cc3c(=O)n4cccc(C)c4nc32)cc1	-0.8	-5.0	0.72	11	-7%	-0.4	-0.6
N/C(CSc1ncccc1C(F)(F)F)=N\O	-3.3	·	·	-1	-9%	2.9	-0.3
O=C(Cn1nc(C(=O)O)c2ccccc2c1=O)Nc1cc(S(=O)(=O)N2CCCCC2)ccc1Cl	5.0	1.8	0.66	5	·	2.7	0.0
COCCn1c(-c2ccc(OC)cc2)cnc1SCC(=O)Nc1cccc2ccccc12	-0.6	1.0	0.74	4	9%	-1.5	0.0
Cc1oc2ccc(O)cc2c1C(=O)c1ccc([N+](=O)[O-])cc1	-2.2	5.9	0.7	-8	5%	-0.3	-0.3
CC(O)(Cc1ccccn1)Cc1ccccn1	·	1.8	0.68	-3	0%	3.5	·
O=C1C(Cc2ccc3[nH]ccc3c2)NC(=S)N1c1ccccc1 (stereo unspecified)	-0.7	0.3	0.62	8	-7%	1.5	-0.1
O=C(O)c1cc(N/N=C/C(Cl)=C/c2ccccc2)ccc1Cl	1.1	·	·	9	8%	0.9	-6.9
CC(Oc1ccc(-c2ccccc2)c(F)c1)c1ccn(S(=O)(=O)c2ccc(Cl)cc2)n1 (stereo unspecified)	2.2	2.8	0.73	8	5%	-0.7	-0.3
CN(C)S(=O)(=O)c1ccc(NC(=O)CSc2nnc(-c3ccco3)o2)cc1	-9.4	0.0	0.64	6	·	1.3	0.6
COc1ccc(NC(=O)/C(C#N)=C/c2ccc(-c3ccccc3C(=O)O)o2)cc1	-2.6	10	0.69	-7	·	-4.9	-0.6
Cc1cc(=O)n(C)c2ccccc12	5.1	6.9	0.69	2	-5%	-0.1	?
O=C(NCCCO)c1cc2c([nH]c3ccccc32)c(-c2ccccc2)n1	2.1	-74	0.72	3	-4%	4.0	1.3
CCc1ccc(NC(=O)CCc2ccc(CC)o2)cc1	-2.0	5.2	0.7	2	0%	-4.0	-0.2
CC(=O)Oc1ccc([N+](=O)[O-])cc1N1C(=O)c2ccccc2C1=O	-3.0	11	0.68	8	3%	-4.1	0.0
CCOc1cc(CNCc2cccs2)cc(Br)c1OC	0.7	1.1	0.69	-2	-3%	-1.6	0.4
COc1ccc(OCCOC(=O)Nc2ccccc2)cc1	1.1	3.2	0.68	6	7%	0.2	-0.3
CCN(CC)S(=O)(=O)c1ccc(/C=C/C(=O)OCC(=O)Nc2cccnc2Cl)cc1	2.1	1.7	0.67	9	3%	-0.4	0.8
CCN1CCN(c2ccc(NC(=O)c3ccc(F)cc3)cc2Cl)CC1	4.4	-0.7	0.72	1	·	3.6	0.1
COCCCNC(=S)N1CCC(C(=O)c2ccc(Cl)cc2)CC1	-6.7	7.6	0.65	-3	·	-4.1	0.6
COc1cc(-c2nc3cnccc3n2C)cc(OC)c1OC	-3.2	4.5	0.76	1	5%	0.5	-0.3
C=CCn1c(-c2cnn(-c3ccccc3)c2N)n[nH]c1=S	-2.5	3.4	0.66	1	·	-0.9	-2.4
COc1ccc(OC)c(C(=O)NC(CC(N)=O)c2ccc(NCC3CC3)c([N+](=O)[O-])c2)c1 (stereo unspecified)	2.0	3.3	0.68	-13	·	0.0	0.1
O=C(O)CC(c1ccc(OC2CCCC2)cc1)N1C(=O)c2ccccc2C1=O (stereo unspecified)	-2.5	2.1	0.67	-10	-3%	4.2	-0.2

# Screening data (PubChem BioAssay)
